PINK1 modulator – modulators of PINK1 expression; PINK1 immunofluorescence, high-content cytometry, 24 h; Potency, µM (top dose mostly 76.6 µM), without a hit: at the top dose activation (PINK1 increase), hits mostly activators; 0.2% of 410,000 active; AID 624263; active = well fitted activation curve with a large enough effect; inconclusive = small, poorly fitted or top-dose-only effect; inactive = flat fitted curve, though single readings scatter; cell line not stated here;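 also: potency is read from the fitted curve at half-maximal effect; % of control where 0% means no effect; nearly all actives have a fitted effect of over 65% in size; a mitochondrial uncoupler was the plate control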
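Cells are seeded, rested 12 hours, then given compound at five concentrations or DMSO for 24 hours. After fixation, blocking and antibody staining, PINK1 amount and mitochondrial localization are scored; CCCP serves as control.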
TRPML1 inh – human mucolipin-1 channel inhibition; 0.02% of 390,000 active; activity change, negative = inhibition, % (test concentration not listed); TRPML1-inducible cells, Ca2+ dye fluorescence, FDSS; hits give low values; inhibition of EC80 agonist-evoked calcium signal; in the data active means activity change below about -50%; inconclusive means about -30% to -50%; inactive means above about -30%;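 also: stimulus is agonist 54-4 at its EC80 concentration; % is scaled to controls: 0 for no effect and ±100 for the full control effect; compound concentration not given in the record; the text of the record puts the active cut at -80%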
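Tet-induced TRPML1-DL cells loaded with Ca8 no-wash calcium dye were read kinetically on FDSS. Compound addition was followed by EC80 agonist 54-4 (4 uM final); inhibition was read over 110 s.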
D2 agonist – human D2 receptor agonism in beta-arrestin assay; activation, % (concentration not given with the values); AID 624465; 0.084% of 360,000 active; DiscoveRx PathHunter D2 beta-arrestin, luminescence, 90 min; 100% = 57 uM dopamine signal; P14416; in the data active = activation above about 40%; inconclusive = about 15% to 40%; inactive = below about 15%; also: compound concentration not given in the record; the text of the record calls up to 30% inactive
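DiscoveRx PathHunter D2 beta-arrestin cells (2,100/well) attached overnight, then compound-stimulated 90 min at 37 C in HBSS/10 mM HEPES/0.1% Tween-20 buffer; beta-galactosidase complementation read by luminescence after 1 h at ambient temperature. Dopamine 57 uM final (EC100) as control.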
TRPML1 ag – activates the human TRPML1 channel; Q9GZU1; TRPML1-expressing cells, Ca2+ dye fluorescence, FDSS; host cell line not named in the record; reference of the full effect not given here; activation, % (test concentration not listed); 0.12% of 410,000 active; AID 624414; in the data active = activation above about 50%; inconclusive = about 30% to 50%; inactive = below about 30%; also: 0% is about no effect; the text of the record puts the active cut at 80%
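Tet-induced TRPML1-DL cells, 1,500 per well, cultured overnight, were loaded with a no-wash Ca2+ dye for 45–90 min. Calcium fluorescence was recorded on the FDSS for 110 s after compound addition, before the EC80 agonist (4 uM 54-4) was added.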
CtBP-E1A blk – blocks the CtBP interaction with E1A; AlphaScreen GST-E1A/His-CtBP binding, 1536-well; hits give low values; control for the full effect not named in the record; activity change, % (no concentration beside the values); 0.49% of 340,000 active; AID 651724; in the data active means activity change below about -65%; inconclusive means about -30% to -65%; inactive means above about -30%; also: % is scaled to controls: 0 for no effect and ±100 for the full control effect; compound concentration not given in the record
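In 5 uL wells, 23 nL compound meets equimolar GST-E1A and His-CtBP (5X stock 125 nM each) for 2 h, 37 °C. Beads (5X, 50 ug/mL) then 1 h, 37 °C, dark.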
Six1-Eya2 inh – inhibitors of human Six1/Eya2 interaction | Q15475+O00167 | AlphaScreen GST-Six1/His-Eya2 binding, biochemical; hits give low values; control for the full effect not named in the record | AID 651725 | activity change, % (concentration not given with the values) | 0.56% of 360,000 active; in the data active = activity change below about -65%; inconclusive = about -30% to -65%; inactive = above about -30%; also: % is scaled to controls: 0 for no effect and ±100 for the full control effect
Target sequence (O00167 whole entry, looked up): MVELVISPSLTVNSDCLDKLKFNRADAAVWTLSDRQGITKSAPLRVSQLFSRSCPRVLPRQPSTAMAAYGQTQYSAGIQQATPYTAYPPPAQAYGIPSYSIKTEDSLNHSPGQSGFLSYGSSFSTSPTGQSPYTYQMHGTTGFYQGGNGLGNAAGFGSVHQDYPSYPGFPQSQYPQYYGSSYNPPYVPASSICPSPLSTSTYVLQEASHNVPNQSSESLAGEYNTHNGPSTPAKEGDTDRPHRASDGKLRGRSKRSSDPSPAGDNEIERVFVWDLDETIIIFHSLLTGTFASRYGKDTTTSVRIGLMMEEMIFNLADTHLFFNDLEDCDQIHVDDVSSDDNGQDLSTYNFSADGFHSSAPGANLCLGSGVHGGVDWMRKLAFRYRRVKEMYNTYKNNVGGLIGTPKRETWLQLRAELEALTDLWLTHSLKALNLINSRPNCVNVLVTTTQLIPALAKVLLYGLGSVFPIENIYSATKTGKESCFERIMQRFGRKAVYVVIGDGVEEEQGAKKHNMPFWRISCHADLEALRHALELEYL
Target sequence (Q15475 whole entry, looked up): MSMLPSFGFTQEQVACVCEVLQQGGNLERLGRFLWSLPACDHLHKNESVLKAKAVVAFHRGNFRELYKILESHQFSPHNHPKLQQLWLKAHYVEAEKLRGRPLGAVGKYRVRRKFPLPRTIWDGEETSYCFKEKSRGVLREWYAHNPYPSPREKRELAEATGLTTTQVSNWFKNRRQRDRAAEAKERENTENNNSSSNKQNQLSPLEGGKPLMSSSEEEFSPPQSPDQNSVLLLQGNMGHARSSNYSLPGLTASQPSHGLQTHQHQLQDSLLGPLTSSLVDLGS
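AlphaScreen with GST-Six1 and His-Eya2 (5X mix: 250 nM and 500 nM), glutathione donor and nickel acceptor beads; buffer 50 mM Tris pH 8.0, 300 mM NaCl, 1 mM TCEP; 1 h at 37 C in the dark.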
Starred values were filed as active, the others as inactive; ? = inconclusive; / = no result given; [ ] = remark or other dose.

SMILES	PINK1 modulator	TRPML1 inh	D2 agonist	TRPML1 ag	CtBP-E1A blk	Six1-Eya2 inh
CN(C)S(=O)(=O)c1cc(NC(=O)CSc2nn(-c3ccc(Cl)cc3)c(=S)s2)ccc1Cl	1.5%	17	5.6	1.1	8	4
Cc1cnc(C(=O)N2CCCC(C(=O)c3cccc(OC(C)C)c3)C2)cn1 (centres undefined)	-1.3%	?	-6.1	0.3	0	-4
CC(=O)c1c(C(C)=O)c(C)n(Cc2ccc3c(c2)OCO3)c1C	-5.2%	-7	0.1	-0.7	1	-3
COc1ccc(N(C(=O)c2snc(C(N)=O)c2N)C(C(=O)NC2CCCCC2)c2ccc(C)o2)cc1 (centres undefined)	2.2%	9	-2.7	1.0	0	5
CC(C)c1ccc(NC(=O)CN(C)S(=O)(=O)c2ccc3c(c2)c(=O)n(C)c(=O)n3C)cc1	3.0%	9	/	0.3	/	/
COc1ccc(OC)c2[nH]c(=O)c(CCNC(=O)CC(C)C)cc12	1.3%	-14	0.5	0.2	6	1
COc1ccc(S(=O)(=O)NC(=O)C2(C)CCN2C(=O)Cc2cc(C)cc(C)c2)cc1OC (centres undefined)	2.5%	/	5.2	-0.4	6	0
Cc1cc(C)c2nc(N(CCCN(C)C)C(=O)c3ccc(S(=O)(=O)N4CCCCCC4)cc3)sc2c1	-2.1%	-5	-6.4	2.4	?	-20
CCCN(CCC)S(=O)(=O)c1ccc(C(=O)OCCN2C(=O)c3cccc4c(N5CCOCC5)ccc(c34)C2=O)cc1	5.3%	2	2.4	6.5	-7	20
C=CCSc1nc2ccccc2c2nc(-c3ccccc3)nn12	11%	-10	1.1	1.5	21	2
COc1ccc(-c2csc(NC(=O)c3c(C)noc3C)n2)cc1	4.1%	-5	5.2	2.5	1	-3
COc1cc2c(cc1OC)-c1cc(NC3CCCCC3)nc(=O)n1CC2	-0.4%	-4	0.1	-0.9	-66*	-65*
O=C(NCCc1cccc(F)c1)C1CCN(S(=O)(=O)c2ccc(F)cc2)CC1	-1.0%	-8	-15	1.2	9	5
CC(=O)Nc1ccc(NC(=O)C(C)NC(C)c2cccc3ccccc23)cc1 (centres undefined)	-2.9%	8	-2.0	0.2	-7	-10
COc1ccc(CNC(=O)c2c(O)c3ccccc3n(C)c2=O)cc1OC	10.0%	6	-1.8	-1.0	0	3
CC(C)Nc1ncnc2c1ncn2[C@H]1CN(Cc2ccc(-c3ccccc3)cc2)C[C@@H](CO)O1	-0.6%	19	11	1.2	1	0
COC(=O)c1c(C(=O)OC)c(-c2cccc(C)c2)n2c1CS(=O)C2 (centres undefined)	1.0%	-4	-4.6	1.6	0	-2
COc1ccc(N/N=C/c2c(C(=O)O)ccc3ccccc23)cc1	8.8%	0	-1.8	4.0	-15	?
O=C(COc1ncnc2ccc(Br)cc12)NCc1ccco1	1.8%	-17	-8.4	0.2	-2	-2
COc1cc(/C=N/NC(=O)c2cccnc2)ccc1OS(=O)(=O)c1cc(C)ccc1C	2.5%	41	9.6	1.1	-19	-4
CCN(CC)CC(=O)N1N=C(c2cccs2)CC1c1ccco1 (centres undefined)	1.5%	0	-1.7	-0.5	-10	14
COc1ccc(C2c3c(oc4cc(C)cc(C)c4c3=O)C(=O)N2Cc2ccco2)cc1OC (centres undefined)	11%	0	/	2.1	/	/
O=C1C=C(c2ccccc2)OC(c2ccccc2)O1 (centres undefined)	1.3%	-10	0.3	0.6	13	2
O=C1CCCc2oc3c(cc(NS(=O)(=O)c4ccc5c6c(cccc46)C(=O)N5)c4ccccc43)c21	2.3%	24	11	-0.1	-28	?
COc1ccc(CCN(Cc2cc3cc(C)c(C)cc3nc2Cl)C(=O)C2CC2)cc1	-6.7%[38.3 µM]	65	0.0	1.9	3	3
CC1CCCN(S(=O)(=O)c2ccc(NC(=O)c3nc(SC(C)C)ncc3Cl)cc2)C1 (centres undefined)	1.3%	1	/	0.6	/	/
CCOC(=O)c1cncc(C#CCOC(=O)Nc2ccc(OC(F)(F)F)cc2)c1	4.8%	-12	-4.1	11	0	8
Cc1ccc(NC(=S)NNc2ccc([N+](=O)[O-])cc2S(=O)(=O)Nc2ccccc2C(=O)O)cc1C	2.9%	3	0.4	1.0	-9	-3
COc1cc(NC(=O)CN(C)S(=O)(=O)c2ccc(C)cc2)cc(OC)c1	-0.6%	26	2.4	3.2	0	19
CCN(CC)C(=O)c1cc(-c2ccccc2OC)on1	4.0%	-2	-2.8	-0.5	7	6
CN(Cc1ccccc1)C(=O)c1cccc(NC(=O)Cc2cccc(NC(=O)C3CCN(C(=O)c4ccccc4)CC3)c2)c1	-0.4%	7	-0.6	1.4	0	1
Cc1ccc(-n2ncc(C(=O)NCc3cccs3)c2C2CCN(C(=O)OC(C)(C)C)CC2)c(C)c1	1.8%	-6	/	0.4	/	/
COc1ccc(-c2nc(-c3ccccc3)nc(Cl)c2C#N)cc1	7.7%[38.3 µM]	3	-1.4	-0.1	-3	-1
CC(C)(C)c1ccc(Cn2cnc(-c3ccc([N+](=O)[O-])cc3)c2)cc1	?	26	1.0	0.9	-8	?
CCCc1nn2c(=O)cc(CSCC(=O)Nc3ccc(F)cc3)nc2s1	0.3%	26	-7.8	0.0	-2	-2
CC1(C(=O)NCc2cccnc2)CCC(=O)N1Cc1cccs1 (centres undefined)	1.1%	0	-2.9	0.3	8	8
CSCCC1NC2(C(=O)Nc3ccc(Cl)cc32)[C@@H]2C(=O)N(C3CCCC3)C(=O)[C@H]12 (some centres undefined)	4.0%	-7	-2.9	0.9	-8	-6
CN1CCN(C(=S)NC(=O)c2ccccc2Br)CC1	2.1%	2	-2.9	0.3	-18	-11
Cc1cc(C)c(NC(=O)Cn2nnc(-c3ccccc3)n2)c(C)c1	0.2%	11	/	4.5	/	/
COc1ccc2c(Sc3ccccc3)c(C(=O)NCC(C)c3ccccc3)[nH]c2c1 (centres undefined)	-0.2%	-1	/	-0.4	/	/

Six1-Eya2 inh: entries above that show a hit
compound,TRPML1 inh,D2 agonist,CtBP-E1A blk,Six1-Eya2 inh
COc1cc2c(cc1OC)-c1cc(NC3CCCCC3)nc(=O)n1CC2,-4,0.1,-66*,-65*

Nothing new here: 10 of the compounds above.
SMILES	PINK1 modulator	TRPML1 inh	D2 agonist	TRPML1 ag	CtBP-E1A blk	Six1-Eya2 inh
CN(Cc1ccccc1)C(=O)c1cccc(NC(=O)Cc2cccc(NC(=O)C3CCN(C(=O)c4ccccc4)CC3)c2)c1	-0.4%	7	-0.6	1.4	0	1
Cc1ccc(-n2ncc(C(=O)NCc3cccs3)c2C2CCN(C(=O)OC(C)(C)C)CC2)c(C)c1	1.8%	-6	/	0.4	/	/
COc1ccc(-c2nc(-c3ccccc3)nc(Cl)c2C#N)cc1	7.7%[38.3 µM]	3	-1.4	-0.1	-3	-1
CC(C)(C)c1ccc(Cn2cnc(-c3ccc([N+](=O)[O-])cc3)c2)cc1	?	26	1.0	0.9	-8	?
CCCc1nn2c(=O)cc(CSCC(=O)Nc3ccc(F)cc3)nc2s1	0.3%	26	-7.8	0.0	-2	-2
CC1(C(=O)NCc2cccnc2)CCC(=O)N1Cc1cccs1 (centres undefined)	1.1%	0	-2.9	0.3	8	8
CSCCC1NC2(C(=O)Nc3ccc(Cl)cc32)[C@@H]2C(=O)N(C3CCCC3)C(=O)[C@H]12 (some centres undefined)	4.0%	-7	-2.9	0.9	-8	-6
CN1CCN(C(=S)NC(=O)c2ccccc2Br)CC1	2.1%	2	-2.9	0.3	-18	-11
Cc1cc(C)c(NC(=O)Cn2nnc(-c3ccccc3)n2)c(C)c1	0.2%	11	/	4.5	/	/
COc1ccc2c(Sc3ccccc3)c(C(=O)NCC(C)c3ccccc3)[nH]c2c1 (centres undefined)	-0.2%	-1	/	-0.4	/	/

Later entries
SMILES	PINK1 modulator	TRPML1 inh	D2 agonist	TRPML1 ag	CtBP-E1A blk	Six1-Eya2 inh
COc1ccc(C(=O)NCc2nnc(SCC(=O)NCc3ccco3)o2)cc1	0.1%	-1	0.8	-0.5	/	-7
COc1ccc(CN(C(=O)c2oc3ccccc3c2C)C2CCS(=O)(=O)C2)cc1OC (centres undefined)	0.7%	-11	0.8	-0.4	-11	0
COc1ccc(/C=N/n2c(-c3ccc(C)cc3)n[nH]c2=S)cc1OC	2.4%	-22	10	4.4	/	-3
COc1cccc(C(=O)CSc2nnc(COc3cccc4cccnc34)o2)c1	-3.7%[38.3 µM]	0	-0.5	0.1	5	-4
CCC(=O)c1ccc(OCc2ccc(C#N)cc2)cc1	0.5%	24	-1.2	1.7	/	5
COc1cccc(N(C(=O)Cn2nnc(-c3cccs3)n2)C(C(=O)NC(C)C)c2ccc(C)o2)c1 (centres undefined)	2.1%	-2	2.5	1.9	0	6
COc1ccc(C(CNC(=O)C(C)Sc2ccccc2)N2CCOCC2)cc1 (centres undefined)	8.2%	-9	-3.5	-0.2	3	8
O=C(O)CCN(CC(=O)c1ccc(Cl)cc1)S(=O)(=O)c1ccc([N+](=O)[O-])cc1	0.8%	20	6.0	-0.7	5	5
CCn1c(CNC(=O)c2cccs2)nnc1SCC(=O)Nc1cc(Cl)ccc1C	3.1%[38.3 µM]	-1	-4.2	-0.2	2	-2
O=C1c2cccc(OCC(=O)N3CCCc4ccccc43)c2CCN1Cc1ccc(Br)cc1	-2.3%	-1	1.9	0.1	-5	-3
COc1cc(CC(=O)NCCc2ccc(OCc3ccccc3)cc2)c([N+](=O)[O-])cc1OC	11%	0	2.1	0.4	2	7
CCOc1ccc(/C=C/c2nc(C#N)c(NC(C)CC)o2)cc1 (centres undefined)	9.5%	-3	/	0.3	/	/
Cc1cc(C)nc(N2CCCC(C(=O)Nc3ccc4c(c3)OCCO4)C2)n1 (centres undefined)	-1.8%[38.3 µM]	-11	-2.7	3.9	6	-1
COc1ccc(-n2nnnc2C(c2cccs2)N2CCN(C/C=C/c3ccccc3)CC2)cc1 (centres undefined)	1.8%	-10	4.2	0.4	?	?
COc1ccc(NC(=O)C2CCN(c3cnccn3)CC2)cc1OC	1.8%	-11	-3.5	-0.4	-8	7
CCOC(=O)C(=CNc1nc(-c2ccc3ccccc3c2)cs1)C(=O)OCC	6.2%	6	-3.4	1.5	11	-12
CCOCCCNC(=O)c1cc(Sc2nnc(C)s2)nc2ccccc12	-1.9%	-14	0.6	-0.2	-5	5
CNc1snc(C)c1C(=O)OC(C)C(=O)Nc1ccc(F)cc1 (centres undefined)	0.6%	8	6.7	-0.3	/	-2
COCCNc1nc2cc(-c3cccc(Cl)c3)sc2c(=O)n1C	3.6%	/	-0.7	-0.8	2	6
COC(=O)c1ccc(Cl)c(NC(=O)CN(c2ccc3c(c2)OCO3)S(C)(=O)=O)c1	7.7%[38.3 µM]	-7	-1.7	2.1	-1	-1
CC1CCCCN1S(=O)(=O)c1ccc(NC(=O)c2cccs2)cc1 (centres undefined)	/	7	-0.3	0.8	11	-4
O=[N+]([O-])c1cc(/C=N/N2CCN(Cc3ccccc3)CC2)ccc1Cl	-1.1%	26	-2.9	0.4	?	-20
CCC1CSC(Nc2ccc(C(=O)/C=C/c3ccc(Br)cc3)cc2)=N1 (centres undefined)	-0.3%	9	-4.8	0.2	3	-1

High-throughput results (PubChem BioAssay)
